Bead autofluor – flagged as autofluorescent in microsphere protease counterscreen. fluorescence intensity (test concentration not listed). 3.1% of 360,000 active. compound autofluorescence counterscreen, microsphere flow cytometry; stronger effect = higher value;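 active means at least 3 SD above the mean of all compounds, about 16000 in these data; inconclusive means too few beads counted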;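 further: 100 nL of 1 mM stock went into each well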
RN4220 kill – S. aureus RN4220 growth inhibition; OD600, 16 h; inhibition, % (no concentration beside the values); 0.33% of 330,000 active;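 active means z-score of -3 or lower and OD600 up to 0.18 on both plates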;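 further: plate controls were untreated cells for no effect and reference antibiotic for full effect; stock transfer was 100 nL into about 80 µL; one replicate is shown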
BJeLR viability – BJeLR cell viability loss. BJeLR (HRASV12) viability, CellTiter-Glo ATP luminescence, 48 h; reference of the scale not given here. inhibition, % (no concentration beside the values). 0.17% of 300,000 active. AID 1554;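 active means replicate mean above 50%; inconclusive means above 50% but judged a plate artefact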;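 further: 50 nL library stock added to about 25 µL; numbers are from one replicate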
ugtP null kill – compounds lethal to S. aureus RN4220 ugtP deletion mutant | OD600 growth, 16 h; some inactives read as strong as hits | growth inhibition, % (no concentration beside the values) | 0.54% of 330,000 active | AID 1259309;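 active means z-score under -3 and OD600 up to 0.15 on both plates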;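 further: plate controls were untreated wells for no effect and antibiotic for full effect; wells of about 80 µL received 100 nL stock; the first replicate is given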
PrP 5UTR inh – suppresses PrP 5' UTR mRNA reporter expression; cell-based PrP 5' UTR mRNA reporter, plate reader; inhibition, % (test concentration not listed); 0.35% of 340,000 active;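 active means every replicate at 50% or more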;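 further: 0 = median of the neutral control wells; tested in H4 reporter cells; numbers are from one replicate; inactives centre near -14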
Mtb hypoxia inh – reduces hypoxia-regulated biosensor signal in M. tuberculosis; M. tuberculosis hypoxia-regulated fluorescent reporter, fluorescence; fluorescence inhibition, % (test concentration not listed); 0.1% of 300,000 active; AID 1159583;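 active means 35 to 45% if threefold the growth effect, above 45% if 1.5-fold the growth effect; inactive means the rest, general growth blockers included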;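 further: wells of about 50 µL received 100 nL stock; 0% = vehicle wells and 100% = reference inhibitor wells; whole bacteria with a GFP reporter of the hypoxia response; strong numbers were not always called active; many hits fall short of the cut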
Mtb hypoxia inh growth – further read-out of Mtb hypoxia inh, marked with its call; growth inhibition, %; measured here: M. tuberculosis growth (absorbance);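 0% = vehicle and 100% = reference antibiotic; read after six days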
Active calls of the source: *; ? = inconclusive; . = no result given; & = joins results of further samples.

SMILES	Bead autofluor	RN4220 kill	BJeLR viability	ugtP null kill	PrP 5UTR inh	Mtb hypoxia inh	Mtb hypoxia inh growth
CCC(=O)Nc1cccc(C2=NOC3(C2)C[C@@H](C(N)=O)N(C(=O)c2ccccc2C(=O)c2ccccc2)C3)c1 (some centres not stated)	3147	.	-2.9	.	8.3	.	.
Cc1ccc(OCCCCN2CCc3ccccc3C2)c(C)c1	3022	2.2	-1.7	4.3	-7.9	-1.2	-0.5
COCCn1c(N)c(N(Cc2ccccc2)C(=O)CSCC(=O)Nc2ccc(C)cc2)c(=O)[nH]c1=O	?	-2.1	-1.0	-1.1	-4.6	-5.2	-0.5
COc1ccc(C2=NN(C(N)=S)C(c3ccco3)C2)cc1 (configuration not stated)	4567	7.4	13.6	3.1	-38.3	16.4	11.6
CCC(=O)N/N=C(\C)CC(=O)Nc1cc(Cl)ccc1C	2587	.	5.5	.	-19.4	.	.
COCCCNC(=O)c1cn(C)c(=O)c2cc(OC)c(OC)cc12	3266	-1.3	1.9	1.6	-4.9	-2.3	-5.8
O=C(CSc1nnc(Cn2nnc3ccccc32)o1)Nc1ccc(Cl)cc1	3220	0.2	-14.0	-3.8	-9.4	.	.
Cn1nnnc1Sc1ncnc2scc(-c3ccc(-c4ccccc4)cc3)c12	2926	4.2	.	-3.0	-30.0	-1.9	9.0
Cc1onc(-c2ccccc2)c1C(=O)OCC(=O)NCc1ccc(F)cc1	3918	-3.1	5.5	-6.8	-14.9	-8.3	7.9
O=S(=O)(Nc1ccccn1)c1ccc(C2CCCCC2)cc1	6636	8.0	5.2	-15.1	-14.1	6.0	7.0
COc1ccc(C(C)=NNC(=O)c2nnn(-c3nonc3N)c2-c2cccs2)cc1OC	.	3.1	.	-2.0	.	0.6	-5.5
CCCn1cc2c(c1-c1cccc(C)c1)c(=O)n(C)c(=O)n2C	3362	5.3	3.0	-2.6	-26.2	13.5	5.8
Cc1ccc(OCC(=O)Nc2ccc(F)cc2)c([N+](=O)[O-])n1	4441	0.5	3.7	1.6	-70.8	3.4	13.3
CN(c1ccccc1C(=O)Nc1ccc2c(c1)OCCO2)S(C)(=O)=O	6096	4.7	-0.3	-0.3	-35.5	14.5	2.0
CC1(C)SC(=S)N(c2ccccc2)C1/[N+]([O-])=C/c1cccc([N+](=O)[O-])c1 (configuration not stated)	5689	-5.6	-2.2	-5.2	.	-8.7	-6.0
CCOC(=O)C1=C(C)NC(=S)N(C(C)=O)C1c1ccccc1 (configuration not stated)	13120	1.2	5.4	1.8	-6.9	13.8	1.8
CCCCn1c(N)c(Sc2ccc(Cl)cc2)c(=O)[nH]c1=O	19647*	4.4	-0.5	0.4	-11.0	14.4	8.2
CC(C)C1Cc2c(sc3[nH]c(=S)n(Cc4ccccc4)c(=O)c23)CO1 (configuration not stated)	3838	25.2	18.5	5.4	-1.1	.	.
C=CCNC(=O)CSc1nc2sc3c(c2c(=O)n1CCC)CCC3	5156	2.2	-12.9	7.8	-23.0	1.2	9.1
CCN(C(=O)CN1C(=O)NC(CCSC)C1=O)C1CCS(=O)(=O)C1 (configuration not stated)	3025	1.8	.	4.2	-12.9	-0.3	-3.2

6 compounds from above, limited to BJeLR viability and PrP 5UTR inh:
| mol | BJeLR viability | PrP 5UTR inh |
| --- | --- | --- |
| Cc1ccc(OCC(=O)Nc2ccc(F)cc2)c([N+](=O)[O-])n1 | 3.7 | -70.8 |
| CN(c1ccccc1C(=O)Nc1ccc2c(c1)OCCO2)S(C)(=O)=O | -0.3 | -35.5 |
| CC1(C)SC(=S)N(c2ccccc2)C1/[N+]([O-])=C/c1cccc([N+](=O)[O-])c1 (configuration not stated) | -2.2 | . |
| CCOC(=O)C1=C(C)NC(=S)N(C(C)=O)C1c1ccccc1 (configuration not stated) | 5.4 | -6.9 |
| CCCCn1c(N)c(Sc2ccc(Cl)cc2)c(=O)[nH]c1=O | -0.5 | -11.0 |
| CC(C)C1Cc2c(sc3[nH]c(=S)n(Cc4ccccc4)c(=O)c23)CO1 (configuration not stated) | 18.5 | -1.1 |

More compounds
SMILES	Bead autofluor	RN4220 kill	BJeLR viability	ugtP null kill	PrP 5UTR inh	Mtb hypoxia inh	Mtb hypoxia inh growth
CC1(C)Oc2ccc3ccc(=O)oc3c2/C(=C/Nc2ccc(O)cc2)C1=O	4593	.	0.6	.	-3.0	.	.
O=c1[nH]c(=S)[nH]c(O)c1CN1CCCCC1	7707	8.4	14.2	1.2	-15.3	4.1	1.5
Cc1cccc(C(=O)Nc2cc(OCc3cccc(F)c3)c(Cl)cc2Cl)c1	19656*	-2.7	-0.8	4.1	-28.1	-0.9	1.3
COc1ccc(NS(=O)(=O)c2ccc(Cl)s2)cn1	4761	4.1	4.9	3.8	-4.2	13.5	11.9
COc1ccc(Cn2c(C)nc3c(c(=O)c4ccccc4n3C)c2=O)cc1	4864	1.2	-5.2	1.2	-18.9	11.1	13.4
O=C(COC(=O)CNS(=O)(=O)c1cccc(Br)c1)NC(=O)Nc1ccc2c(c1)OCCO2	2443	0.0	.	-0.1	-22.1	-6.9	12.2
O=C(NC(C(=O)NN=Cc1cccnc1)c1n[nH]c(=O)c2ccccc12)c1ccccc1 (configuration not stated)	.	5.2	.	-0.9	.	11.5	0.2
CC(=O)c1c(C)oc2c1cc(O)c1ccccc12	4777	3.5	-1.6	-7.8	-23.9	5.6	3.9
COc1ccc(CC(=O)N/N=C(\C)c2ccccn2)cc1	2435	.	5.6	.	-7.6	.	.
CC(C)(C)n1nc2c(c1NC(=O)c1ccccc1C(F)(F)F)CS(=O)(=O)C2	5429	2.0	-6.8	-5.2	-1.6	4.8	8.8
O=C(NCCc1cccs1)C1CC1	3401	4.4	-0.7	4.1	-25.0	-6.3	3.1
COc1c(O)ccc(/C=C(\C#N)c2nc3ccccc3[nH]2)c1[N+](=O)[O-]	2638	.	-10.0	.	-40.3	.	.
CC(=O)NCC(=O)OCC(=O)N1c2ccccc2Sc2ccccc21	3843	0.9	-0.7	-0.3	-19.7	2.4	-1.7
COc1cc(/C=C/c2cccc[n+]2C)ccc1OCC(=O)Nc1ccccc1C	3375	-1.3	-3.5	8.8	-20.6	2.1	-5.3
COc1ccc2[nH]c(=O)c(CN(Cc3nnnn3CCc3ccccc3)CC3CCCO3)cc2c1 (configuration not stated)	3227	-9.4	7.0	0.5	-10.5	4.4	-4.2
CC(=O)Nc1ccc(S(=O)(=O)NC2=C(N3CCN(Cc4ccccc4)CC3)C(=O)c3ccccc3C2=O)cc1	3441&7708	12.7	-3.2	-3.7	-23.0&-29.0	2.2	2.9
O=C(Cc1cccs1)NCCc1ccc(Cl)cc1	5052	1.3	4.7	1.6	-10.5	10.3	0.0
C=CCOC(=O)C1=C[C@H](c2ccccc2)[C@@H](CCCO)[C@H](OCC)O1	3094	.	-3.0	.	-1.3	.	.
Cc1ccc(C2C3C(=O)N(c4ccc(C)cc4)C(=O)C3N3CCCN23)cc1 (configuration not stated)	4204	5.3	2.0	12.4	-1.3	8.2	12.6
O=c1[nH]c2ccccc2n1C1=CCNCC1	3262	4.3	12.9	10.2	-21.2	11.5	2.3
CSc1ccccc1NC(=O)CN(C)CC(=O)c1[nH]c(C)c(C(C)=O)c1C	4121	0.2	.	3.2	-16.0	4.8	-10.0
CCOC(=O)C1CCN(C(=O)Cc2c(C(=O)O)n(C)c3ccccc23)CC1	4244	1.2	-9.4	-3.2	-15.5	.	.
O=C(NC1CCCC1)C(c1ccncc1)N(Cc1ccco1)C(=O)c1ccc(-c2ccccc2)[nH]1 (configuration not stated)	3550	10.3	-2.1	6.5	-36.0	11.2	7.2
C[C@@]12CCC=C[C@H]1[C@H](c1ccc3ccccc3c1/C=C/c1ccccc1)N(Cc1ccccc1)C2=O	3200	.	7.1	.	-43.9	.	.
COc1ccc(NC(=O)c2cc3c(s2)CCC3)cc1S(=O)(=O)N1CCOCC1	6772	-5.4	9.0	-18.5	-22.8	4.8	12.8
c1ccc2c(N3CCNCC3)nsc2c1	4113	-0.3	5.0	1.2	0.3	-2.8	-1.2
COc1ccc(C2C=CCN(C(=O)C3CC3)C(C)C(=O)N2Cc2ccc(F)cc2)cc1 (configuration not stated)	.	1.3	.	0.9	.	9.0	15.7
CCOCC(O)CNc1ccccc1 (configuration not stated)	2439	1.7	20.5	2.2	-10.6	7.4	3.6
CCN(C(=O)COC(=O)c1cc(-c2ccccc2)nn1-c1ccccc1)C1CCS(=O)(=O)C1 (configuration not stated)	4532	13.4	2.1	6.7	-15.4	-9.5	0.6
COc1ccccc1NC(=O)/C(C#N)=C/C=C/c1ccco1	22514*	0.8	-9.4	-13.3	-11.1	5.6	9.0
CNC(=S)N/N=C/c1ccc(-c2cc([N+](=O)[O-])ccc2Cl)o1	2145	.	-4.6	.	5.1	.	.
Nc1nc(CSCCO)nc(Nc2ccccc2)n1	2784	0.1	6.9	1.3	-47.9	8.3	21.1
O=C(CCc1nc(-c2ccc(Cl)cc2)no1)OCc1ccc(Br)cc1	3010	-0.6	-7.0	-0.2	-95.9	.	.
O=C(COc1ccccc1C(=O)NN=Cc1ccc(O)c(O)c1)NN=Cc1ccc(O)c(O)c1	.	25.8	.	2.0	.	-1.2	-7.0
CC(=O)NC(CC(=O)Nc1nc(C)cs1)c1ccccc1 (configuration not stated)	4169	2.4	-6.6	7.0	-44.2	6.8	14.2
COc1ccc(NC(=O)CCC(=O)Nc2nnc(C3CCCCC3)s2)cc1	5269	4.9	-6.4	0.1	-25.5	6.0	9.1
CCOC(=O)C1=C(N)Oc2cc(C)oc(=O)c2C12C(=O)N1c3c(cc(OC)cc32)C(C)=CC1(C)C (configuration not stated)	23174*	2.5	0.0	2.6	-9.8	3.4	11.6
CC(C)[C@H](NC(=O)c1ccco1)C(=O)OCC(=O)N1CCc2ccccc21	3509	0.7	1.7	5.3	-14.8	.	.
CCNC(=O)COc1ccc(C=O)cc1OC	2021	-4.3	-8.2	3.6	-21.3	-9.0	-8.5
COc1ccc(C)c2sc(NC(=O)C3=COCCO3)nc12	5407	14.9	7.4	-4.1	-22.1	-5.3	16.9

As a working copy, 5 of the compounds above.
SMILES	Bead autofluor	RN4220 kill	BJeLR viability	ugtP null kill	PrP 5UTR inh	Mtb hypoxia inh	Mtb hypoxia inh growth
CSc1ccccc1NC(=O)CN(C)CC(=O)c1[nH]c(C)c(C(C)=O)c1C	4121	0.2	.	3.2	-16.0	4.8	-10.0
CCOC(=O)C1CCN(C(=O)Cc2c(C(=O)O)n(C)c3ccccc23)CC1	4244	1.2	-9.4	-3.2	-15.5	.	.
O=C(NC1CCCC1)C(c1ccncc1)N(Cc1ccco1)C(=O)c1ccc(-c2ccccc2)[nH]1 (configuration not stated)	3550	10.3	-2.1	6.5	-36.0	11.2	7.2
C[C@@]12CCC=C[C@H]1[C@H](c1ccc3ccccc3c1/C=C/c1ccccc1)N(Cc1ccccc1)C2=O	3200	.	7.1	.	-43.9	.	.
COc1ccc(NC(=O)c2cc3c(s2)CCC3)cc1S(=O)(=O)N1CCOCC1	6772	-5.4	9.0	-18.5	-22.8	4.8	12.8

Additional results:
SMILES	Bead autofluor	RN4220 kill	BJeLR viability	ugtP null kill	PrP 5UTR inh	Mtb hypoxia inh	Mtb hypoxia inh growth
O=C(OCC(=O)c1ccc[nH]1)c1ccc(Cl)nc1	?	-2.0	2.3	-5.6	-9.1	12.4	13.3
COCCNC(=O)c1ccc(N2CC3CC(C2)c2cccc(=O)n2C3)c(NC(=O)c2c(F)cccc2F)c1 (configuration not stated)	6252	2.9	8.7	1.4	-12.1	11.1	6.4
COc1ccc(N2CCN(C(=O)COC(=O)CCc3ccccc3)CC2)cc1	8188	4.1	.	5.8	-8.2	2.5	2.0
CC(C)(C)OC(=O)CC1CC=CCC(CC(=O)NC(CO)Cc2ccccc2)C(=O)NC(Cc2c[nH]c3ccccc23)COC1=O (configuration not stated)	.	4.0	.	-15.5	.	5.4	12.5
CSc1ccccc1OCc1cc(C(=O)N2CCc3[nH]cnc3C2c2ccccn2)no1 (configuration not stated)	5125	2.5	-4.7	10.5	-17.2	-2.3	-0.1
COc1cc(/C=C/C(=O)O)cc(S(=O)(=O)Nc2ccccc2Oc2ccccc2)c1OC	4882	7.0	-10.2	17.3	-24.7	-0.2	8.3
Cc1ccc(-c2nc3cccnc3s2)cc1NS(=O)(=O)c1ccc2c(c1)OCCO2	5604	6.1	-5.9	1.8	-27.0	1.0	12.2
CC1(c2nnc(-c3ccccc3)o2)CC(c2ccncc2)=NO1 (configuration not stated)	3504	6.0	3.0	0.1	-11.6	.	.

Source: PubChem
